Bioassay records deposited in PubChem BioAssay by Broad Institute.
Shh pathway inh – blocks Sonic Hedgehog signaling; Shh-LIGHT2 Gli-luciferase reporter, 30 h; inhibition, % (no concentration beside the values); 22,000 compounds, 2.1% hits;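 active = replicate mean of 65% or more; inconclusive = mean lower but half the replicates past it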;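 also: pathway switched on by Shh-conditioned medium diluted 1 in 25 in low serum; 100 nL library stock added to about 40 µL; 0% = median of neutral wells and 100% = positive control level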
YB-1 expr inh – YB-1 expression inhibition; U2OS, qRT-PCR YB-1 vs CDIP delta delta Cp, 16 h; hits give high values; zero = DMSO, each unit about twofold; delta delta Cp (YB-1 minus CDIP) (no concentration beside the values); 30,000 compounds, 0.37% hits;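 active = delta delta Cp rounded down to an integer at or above 3, about 3 SD of DMSO wells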;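 also: higher means less YB-1 transcript or more CDIP transcript relative to DMSO; stock transfer was 100 nL into about 100 µL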
MITF inh – blocks MITF activity; 37,000 compounds, 0.28% hits; inhibition, % (concentration not given with the values); TRPM1 promoter luciferase, luminescence, 24 h;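 active = most replicates at 85% or more, or half of them and the mean; inconclusive = half reach 85% but not the mean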;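 also: human melanocyte line stably carrying TRPM1 promoter luciferase reporter; 0% = vehicle wells and 100% = a positive control; the first replicate is given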
PD-1 reversal – reversal of PD-1 mediated T-cell inhibition. primary human CD4 T cells, PD-L1 beads, CellTiter-Glo 96 h. activation, % (no concentration beside the values). 29,000 tested, under 10 active. AID 2316;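 active = replicate mean of 50% or more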;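 also: 0% = median vehicle wells and 100% = positive control; 100 nL library stock added to about 50 µL; numbers are from one replicate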
Active calls of the source: *; ? = inconclusive; · = not tested or not shown; & = joins results of further samples; ! = repeats disagree. Some of the compounds tested (hit frequency here may not be typical).

SMILES	Shh pathway inh	YB-1 expr inh	MITF inh	PD-1 reversal
C[C@@H]1CN([C@H](C)CO)C(=O)Cc2cc(NC(=O)NC3CCCCC3)ccc2O[C@H]1CN(C)Cc1ccc(Cl)c(Cl)c1	26	0.25	8	0.3
Cc1c(Nc2ncnc3c2cnn3-c2ccccc2)c(=O)n(-c2ccccc2)n1C	·	·	-4	-0.3
C[C@H]1CN([C@@H](C)CO)C(=O)c2cc(NC(=O)Nc3ccc(F)cc3)ccc2O[C@@H]1CN(C)CC1CC1	-19	0.038	-7	3.7
C[C@H](CO)N1C[C@H](C)[C@H](CN(C)C(=O)Nc2ccccc2)Oc2ccc(N(C)C)cc2CC1=O	0	-0.2	-4	·
Clc1ccccc1-c1nnc(SCc2nc3ccccc3[nH]2)n1-c1ccccc1	·	·	37	-1.3
C[C@@H]1O[C@@H](O[C@@H]2[C@@H](O)[C@H](O[C@@H]3[C@@H](O)[C@@H](O)[C@H](O[C@H]4[C@H](OC(=O)[C@]56CCC(C)(C)C[C@H]5C5=CCC7[C@@]8(C)C[C@H](O)[C@H](O[C@@H]9O[C@H](C(=O)O)[C@@H](O)[C@H](O)[C@H]9O)[C@@](C)(CO)C8[C@H](O)C[C@@]7(C)[C@]5(C)C[C@H]6O)O[C@@H](CO)[C@@H]4O)O[C@H]3C)OC[C@H]2O)[C@H](O)[C@H](O)[C@H]1O (stereo partly drawn)	36	0.039	·	·
Cc1cc2nc(Sc3c([N+](=O)[O-])nc(C)n3Cc3ccccc3)[nH]c2cc1C	·	·	32	-15
CC(C)NC(=O)N(C)C[C@H]1Oc2ccc(NC(=O)CCN3CCOCC3)cc2C(=O)N([C@@H](C)CO)C[C@@H]1C	-36	-0.033	-8	0.8
C[C@H](CO)N1C[C@H](C)[C@H](CN(C)Cc2ccncc2)Oc2ccc(NC(=O)CCN3CCOCC3)cc2C1=O	·	-0.084	-6	-5.5
C[C@H]1CN([C@@H](C)CO)C(=O)c2cccc(NC(=O)c3nc4ccccc4s3)c2O[C@H]1CN(C)Cc1ccc(C(=O)Nc2ccccc2N)cc1	·	0.19	24	-1.5
COc1ccc2c(c1)SC1=NC(=O)C(Cc3ccccc3)C(=O)N12 (stereo not drawn)	20	-0.11	14	0.6
Cc1cc(C(=O)Nc2cccc3c2O[C@@H](CN(C)C(=O)Nc2ccc(F)cc2)[C@H](C)CN([C@@H](C)CO)C3=O)n(C)n1	34	0.29	-4	0.0
C[C@@H]1CN([C@H](C)CO)C(=O)c2cccc(NS(=O)(=O)c3cccs3)c2O[C@@H]1CN(C)C(=O)Nc1ccc(C(F)(F)F)cc1	-51	-0.67	6	·
CC1(C)Cc2c(sc(NC(=O)C(c3ccccc3)c3ccccc3)c2C#N)CO1	20	0.092	-5	0.7
CC(=O)c1ccc(NC(=O)CSc2nc(C)c(C)c(=O)[nH]2)cc1	·	·	-2	1.7
C[C@@H]1CN([C@H](C)CO)C(=O)Cc2cc(NC(=O)c3ccncc3)ccc2O[C@@H]1CN(C)Cc1ccc(C(F)(F)F)cc1	-9	-0.26	-30	-4.6
COc1cccc(OC)c1C(=O)N[C@@H]1C(=O)N2[C@@H]1SC(C)(C)[C@@H]2C(=O)O	-50	-0.34	15	·
CNC[C@H]1Oc2c(N)cccc2C(=O)N([C@H](C)CO)C[C@H]1C	3	-0.51	-1	·
C[C@@H]1CN([C@@H](C)CO)C(=O)c2cc(NS(C)(=O)=O)ccc2O[C@H]1CN(C)CC1CCCCC1	2	0.18	-2	1.2
COC(=O)c1cc(C(=O)NCc2ccco2)cc([N+](=O)[O-])c1	·	·	13	-2.0
COc1ccc(Cl)cc1NC(=O)CCN1C(=O)C2C3C=CC(C4CC34)C2C1=O (stereo not drawn)	·	·	5	1.4
CCOC(=O)c1c(C)cc(O)cc1O	-27	-0.19	-35	·
C[C@H]1CN([C@@H](C)CO)C(=O)c2cc(NS(=O)(=O)c3ccccc3)ccc2O[C@H]1CN(C)C(=O)Nc1ccc(C(F)(F)F)cc1	·	-0.62	1	-1.9
CCC(=O)c1cn(CC(=O)O)c2ccccc12	·	·	-21	2.5
Cc1coc(C)c1C(=O)CC1(O)C(=O)N(Cc2cccc3ccccc23)c2ccccc21 (stereo not drawn)	·	·	27	1.0
C[C@@H]1CN([C@@H](C)CO)C(=O)c2cc(NC(=O)Nc3ccc(F)cc3)ccc2O[C@@H]1CN(C)Cc1ccc2c(c1)OCO2	44	0.1	-2	0.6
C[C@@H]1CCCCO[C@H](CN(C)Cc2ccc3c(c2)OCO3)[C@@H](C)CN([C@H](C)CO)C(=O)c2cc(NS(=O)(=O)c3ccccc3)ccc2O1	-4	0.02	9	0.2
COc1ccc(CN(C)C[C@H]2Oc3ccc(NC(=O)Nc4ccc(C(F)(F)F)cc4)cc3C(=O)N([C@@H](C)CO)C[C@H]2C)cc1	45	-0.14	-5	-6.2
CCCCCN(CCCCC)C(=O)C(CCC(=O)O)NC(=O)c1ccc(Cl)c(Cl)c1 (stereo not drawn)	11	-0.13	-11	7.0
CCN(CC(=O)O)S(=O)(=O)c1ccc(OC)cc1	·	·	-7	1.0
C[C@@H]1CN([C@H](C)CO)C(=O)c2cc(NS(=O)(=O)c3cccs3)ccc2O[C@@H]1CN(C)Cc1ccc(C(=O)O)cc1	1	-0.48	-3	1.0
CCn1c(SCC(=O)Nc2ccc(Br)cc2Cl)nnc1-c1ccccc1	·	·	-3	1.4
C[C@@H]1CN([C@H](C)CO)C(=O)Cc2cc(NC(=O)C3CCCCC3)ccc2O[C@H]1CN(C)S(C)(=O)=O	?	-0.37	-10	-0.1
C[C@H]1CN([C@@H](C)CO)C(=O)c2cc(NC(=O)NC3CCCCC3)ccc2O[C@@H]1CN(C)Cc1ccc(-c2ccccc2)cc1	·	-0.71	0	-0.5
C[C@@H]1CN([C@H](C)CO)C(=O)c2cc(NS(=O)(=O)c3cccs3)ccc2O[C@@H]1CN(C)C(=O)Nc1ccc(C(F)(F)F)cc1	-3	-0.29	4	-1.9
CC(=O)OC/C=C(\C)CC/C=C(\C)C(C/C=C(\CC/C=C(\C)COC(C)=O)C(=O)O)OC(C)=O (stereo not drawn)	-45	0.34	·	·
C[C@H](CO)N1C[C@H](C)[C@H](CN(C)Cc2ccc(C(=O)O)cc2)Oc2ccc(NC(=O)NC3CCCCC3)cc2C1=O	-35	-0.22	4	1.0
Cn1c(SCC(=O)Nc2ccc(Oc3ccccc3)cc2)nnc1-c1ccccc1Cl	·	·	22	-0.5
Cc1cc(Cl)cc(Br)c1OCCCSc1ncccn1	·	·	-120	-0.3
C[C@H]1CN([C@@H](C)CO)C(=O)Cc2cc(NC(=O)C3CC3)ccc2O[C@@H]1CN(C)S(C)(=O)=O	-6	-0.064	-19	0.5

Results in YB-1 expr inh and MITF inh (two entries from above):
| Structure | YB-1 expr inh | MITF inh |
| --- | --- | --- |
| Cc1cc(Cl)cc(Br)c1OCCCSc1ncccn1 | · | -120 |
| COc1ccc(CN(C)C[C@H]2Oc3ccc(NC(=O)Nc4ccc(C(F)(F)F)cc4)cc3C(=O)N([C@@H](C)CO)C[C@H]2C)cc1 | -0.14 | -5 |

Whole records, looked up by structure. Values in the order: Shh pathway inh | YB-1 expr inh | MITF inh | PD-1 reversal
COc1ccc(CN(C)C[C@H]2Oc3ccc(NC(=O)Nc4ccc(C(F)(F)F)cc4)cc3C(=O)N([C@@H](C)CO)C[C@H]2C)cc1 in the list: 45 | -0.14 | -5 | -6.2
CCCCCN(CCCCC)C(=O)C(CCC(=O)O)NC(=O)c1ccc(Cl)c(Cl)c1 (stereo not drawn) in the list: 11 | -0.13 | -11 | 7.0
C[C@H](CO)N1C[C@H](C)[C@H](CN(C)Cc2ccc(C(=O)O)cc2)Oc2ccc(NC(=O)NC3CCCCC3)cc2C1=O in the list: -35 | -0.22 | 4 | 1.0
CCn1c(SCC(=O)Nc2ccc(Br)cc2Cl)nnc1-c1ccccc1 in the list: · | · | -3 | 1.4
C[C@@H]1CN([C@H](C)CO)C(=O)c2cc(NS(=O)(=O)c3cccs3)ccc2O[C@@H]1CN(C)C(=O)Nc1ccc(C(F)(F)F)cc1 in the list: -3 | -0.29 | 4 | -1.9

(next part)
SMILES	Shh pathway inh	YB-1 expr inh	MITF inh	PD-1 reversal
C[C@@H]1CN([C@@H](C)CO)C(=O)c2cc(NS(=O)(=O)c3ccc(Cl)cc3)ccc2O[C@H]1CN(C)Cc1ccc(Oc2ccccc2)cc1	20	-0.32	43	-0.6
CC1(C)C2CC(=O)O[C@@]3(C)C4=CC(=O)O[C@@H](c5ccoc5)[C@]4(C)CCC3[C@@]2(C)C=C[C@H]1O (stereo partly drawn)	24	0.23	-3	·
COc1cc2c(cc1NC(=O)CSc1nnnn1C)oc1ccccc12	·	·	-67	-3.4
CCc1cc2c(SCC(=O)Nc3cccc(OC)c3)ncnc2s1	·	·	-12	-0.8
C[C@H]1CN([C@@H](C)CO)C(=O)Cc2cc(NC(=O)Nc3ccccc3)ccc2O[C@@H]1CN(C)Cc1ccc(Oc2ccccc2)cc1	14	0.017	2	0.6
COc1cccc(S(=O)(=O)N2CCCC2C(=O)O)c1 (stereo not drawn)	·	·	-17	1.5
CCC(Sc1nnnn1-c1ccccc1)C(=O)Nc1sc2c(c1C#N)CCCC2 (stereo not drawn)	68*	0.18	16	-0.5
CCn1c2ccccc2c2nnc(SCC(=O)O)nc21	·	·	32	0.1
CC(CN1CCN(Cc2ccccc2)CC1)N(C(=O)c1ccc(C(C)(C)C)cc1)c1ccccn1 (stereo not drawn)	14	-0.45	20	-0.8
C[C@H](CO)N1C[C@H](C)[C@H](CN(C)S(=O)(=O)c2cccs2)Oc2ccc(NC(=O)Nc3cccc4ccccc34)cc2CC1=O	43	-0.092	11	-1.6
CC1(C)C2CCC1(C)C(NC(=O)c1cccc(C(F)(F)F)c1)C2 (stereo not drawn)	-103	0.27	-31	0.5
Cc1ccc(S(=O)(=O)Nc2ccc3c(c2)C(=O)N([C@@H](C)CO)C[C@@H](C)[C@H](CN(C)S(=O)(=O)c2ccc(Cl)cc2)O3)cc1	·	0.39	6	-0.3
Cc1cc([N+](=O)[O-])nn1CC(=O)N1CCOCC1	·	·	-4	2.8
Cc1ccc(Oc2ncnc3sccc23)cc1	-65	-0.17	-34	-1.0
O=C(COc1ccc([N+](=O)[O-])cc1)Nc1ccc(-c2nc3ccccc3s2)c(Cl)c1	·	·	-31	-0.8
COC(=O)c1ccccc1O[C@@H]1O[C@H](CO[C@@H]2OC[C@@H](O)[C@H](O)[C@H]2O)[C@@H](O)[C@H](O)[C@H]1O	-36	0.086	-4	0.5
CC(C)(O)CCC(=O)C(C)(O)C1C(O)CC2(C)C3CC=C4C(CC(O)C(OC5OC(CO)C(O)C(O)C5O)C4(C)C)C3(C)C(=O)CC12C (stereo not drawn)	-22	-0.12	-3	2.0
N#Cc1c(NC(=O)CNS(=O)(=O)c2cccc(Cl)c2)sc2c1CCCC2	·	·	19	1.9
C[C@H]1CN([C@@H](C)CO)C(=O)c2cccc(NC(=O)Nc3ccc(F)cc3)c2O[C@H]1CN(C)S(=O)(=O)c1ccccc1	-76	-0.64	-8	-4.0
Cc1cc2c(C(C)C)c(O)c(O)c(C=O)c2c(O)c1-c1c(C)cc2c(C(C)C)c(O)c(O)c(C=O)c2c1O	68*!	-0.15&0.0098	31&50	·
C[C@H]1CN([C@@H](C)CO)C(=O)c2cccc(NC(=O)c3cnccn3)c2O[C@H]1CN(C)C(=O)Nc1ccc(C(F)(F)F)cc1	-24	-0.049	-5	1.1
COc1ccc(NC(=O)N(C)C[C@@H]2Oc3ccc(NC(=O)C4CCCCC4)cc3CC(=O)N([C@H](C)CO)C[C@@H]2C)cc1	-5	0.23	-15	·
N#Cc1ccc2ccn(CC(=O)NCc3ccco3)c2c1	·	·	-14	1.4
C[C@@H]1CCCCO[C@H](CN(C)S(=O)(=O)c2cn(C)cn2)[C@@H](C)CN([C@H](C)CO)C(=O)c2cc(NC(=O)Nc3ccccc3)ccc2O1	-24	0.012	-12	1.6
C[C@H](CO)N1C[C@H](C)[C@@H](CN(C)S(=O)(=O)c2ccccc2)Oc2ccc(NS(C)(=O)=O)cc2C1=O	·	-0.19	-6	0.1
N#Cc1c(-c2ccc(Cl)cc2)csc1S(=O)C1CCCCC1 (stereo not drawn)	27	-0.24	19	-7.3
C[C@H](CO)N1C[C@H](C)[C@@H](CN(C)C(=O)Nc2ccccc2)Oc2c(NC(=O)c3cnccn3)cccc2C1=O	-30	-0.23	-6	1.9
O=C(CC1Sc2ccccc2NC1=O)Nc1ccc2c(c1)OCCO2 (stereo not drawn)	·	·	-90	0.1
C[C@@H]1CN([C@H](C)CO)C(=O)c2cccc(NS(=O)(=O)c3ccc(F)cc3)c2O[C@@H]1CN(C)Cc1ccccc1	3	-0.0085	-12	-2.1
C[C@@H]1CN([C@H](C)CO)C(=O)Cc2cc(NC(=O)Cn3cnnn3)ccc2O[C@@H]1CN(C)S(=O)(=O)c1ccccc1	2	-0.33	5	·
C=CCSc1c2c(c(C#N)c3nc4ccccc4n13)CCC2	-6	0.2	62	-8.4
C[C@@H]1CN([C@H](C)CO)C(=O)c2cc(NC(=O)Nc3ccccc3)ccc2O[C@@H]1CN(C)Cc1ccc(C(=O)O)cc1	-9	-0.047	-6	1.3
COc1cc(S(=O)(=O)NCc2cccnc2)ccc1F	·	·	-1	1.1
COc1ccc(OC)c(NC(=O)CC2NCCNC2=O)c1 (stereo not drawn)	·	·	-17	3.3
